YopH PTP inh: YopH (Yersinia) phosphatase inhibition; fluorescence Ex485/Em525; inhibition, %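 (about 10 µM by stock and volumes)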; 140,000 compounds, 0.16% hits; AID 898;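 active = inhibition of 50% or more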;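 note: controls were vehicle for no effect and minimum signal wells for full effect; inactives centre near -20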
Arbovirus anti: antivirals against arbovirus infection. AID 1251. 200,000 compounds, 0.37% hits. arbovirus infection cell-based antiviral screen. inhibition, % at 10 µM;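 active = inhibition from about 30%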;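 note: bluetongue infection of BSR cells; cell survival read as ATP light after 72 h; 0% = infected wells without compound and 100% = uninfected wells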
Mtb H37Rv: M. tuberculosis H37Rv growth inhibitors, H37Rv strain (AID 1626) | one-dose inhibition, % at 10 µM; IC50 in µM for titrated hits | M. tuberculosis H37Rv growth inhibition; higher % means a stronger effect | 220,000 compounds, 0.95% hits;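 active = confirmed in a dose series; inconclusive = inhibition above 80% but not taken into the dose series; inactive = below 80% or under 30% at every dose of the series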;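 note: bacteria incubated seven days before Alamar blue readout; 0% = bacteria only wells and 100% = bacteria with antibiotic wells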
Mtb betalactam: beta-lactam sensitization of Mtb H37Rv. M. tuberculosis H37Rv growth with meropenem, percent inhibition; hits of this screen are not shown here. inhibition, % at 25 µM. 330,000 compounds, 0.27% hits;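 active = about 74% or more and at least 40 points above the plate without the antibiotic, then above 30% in a dose series; inconclusive = first-round hits that could not be retested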;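 note: growth measured after seven days incubation then overnight dye step; 0% = bacteria only wells and 100% = bacteria with antibiotic; twin plates without the antibiotic show which effects depend on it; some results filed as inactive read as strong as hits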
RecA splice inh: blocks M. tuberculosis RecA intein splicing | 290,000 compounds, 0.75% hits | cell-free RecA intein splicing, fluorescence | inhibition, %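 (about 9 µM by stock and volumes)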; in the data active = inhibition above about 30%; inconclusive = no clear call, values can overlap the other calls;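 note: 0% = vehicle wells and 100% = reference inhibitor control wells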
Target sequence (P9WHJ3 whole entry, looked up, canonical isoform): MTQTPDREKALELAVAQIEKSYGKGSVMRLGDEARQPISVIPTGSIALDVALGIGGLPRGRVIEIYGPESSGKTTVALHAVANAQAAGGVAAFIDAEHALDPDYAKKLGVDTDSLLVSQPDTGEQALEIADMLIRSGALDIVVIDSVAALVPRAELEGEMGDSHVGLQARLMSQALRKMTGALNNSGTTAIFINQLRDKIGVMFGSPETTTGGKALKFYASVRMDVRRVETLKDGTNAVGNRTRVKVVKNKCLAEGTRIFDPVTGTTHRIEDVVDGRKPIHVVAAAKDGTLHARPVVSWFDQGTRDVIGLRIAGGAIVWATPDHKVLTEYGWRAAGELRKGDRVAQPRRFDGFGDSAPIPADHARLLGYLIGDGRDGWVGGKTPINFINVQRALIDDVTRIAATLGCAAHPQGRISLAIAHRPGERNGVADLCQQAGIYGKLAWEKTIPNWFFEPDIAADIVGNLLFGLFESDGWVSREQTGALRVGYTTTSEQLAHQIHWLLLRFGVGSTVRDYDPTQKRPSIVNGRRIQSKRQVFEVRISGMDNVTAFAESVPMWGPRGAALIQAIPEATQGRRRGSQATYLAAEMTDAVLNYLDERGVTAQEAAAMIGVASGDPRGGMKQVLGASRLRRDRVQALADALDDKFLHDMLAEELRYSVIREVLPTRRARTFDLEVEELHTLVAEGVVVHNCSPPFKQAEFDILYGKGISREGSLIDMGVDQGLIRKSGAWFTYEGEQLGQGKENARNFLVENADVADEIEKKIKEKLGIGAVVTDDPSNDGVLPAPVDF
Arbovirus anti repeat: also measured in Arbovirus anti; calls as there; inhibition, %; measured here: 10K subset replicate screen; many hits read low in the repeat;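 first of two repeat runs on a subset; 0% = infected and 100% = uninfected wells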
* hit, by the source's call; ? = inconclusive; . = no result given. The list is partial (hit frequency here may not be typical).

SMILES | YopH PTP inh | Arbovirus anti | Mtb H37Rv | Mtb betalactam | RecA splice inh | others
CC/C(=N/NS(=O)(=O)c1ccc(Cl)cc1)c1ccc(O)cc1 | -28 | -2 | 0% | -1 | -2.6
O=C1CC(c2cc([N+](=O)[O-])ccc2Cl)c2c(ccc3ccccc23)N1 (stereo not given) | -30 | -14 | 34% | 5 | -0.1
O=C(Nc1ccc(F)cc1F)Nc1sccc1-c1nc2ccccc2s1 | . | . | 13% | 4 | -2.7
O=C1NC(=O)C(CC(=O)N(Cc2ccco2)C2(C(=O)NC3CCCC3)CCCCC2)N1 (stereo not given) | -4 | 0 | . | -6 | -2.3 | Arbovirus anti repeat=5
O=[N+]([O-])c1c(NCCCO)cc(N2CCN(Cc3ccc4c(c3)OCO4)CC2)c2nonc12 | -23 | 9 | 7% | 5 | 1.0
CCOC(=O)CNc1ccc(C(=O)OCC)cc1[N+](=O)[O-] | -41 | 8 | 3.2µM* | 98 | -1.5
O=C(CSc1nc(-c2ccccc2)nc2ccc(F)cc12)Nc1ccc(C(=O)O)cc1 | . | 10 | -1% | -17 | -2.3
CC(=O)Nc1ccc(S(=O)(=O)NCCC(=O)NCC2COc3ccccc3O2)cc1 (stereo not given) | . | . | . | -1 | -1.3
COc1cccc(-n2cc(C(=O)NC(C)C)c3ccccc3c2=O)c1 | . | . | . | 0 | -3.9
COc1cccc(C=Nc2ccc3c(c2)OCCO3)c1O | -10 | -15 | . | 94 | 3.2
CCCCN(CC)CCCNC(=O)CN1C(=O)CSc2ccc(S(=O)(=O)N3CCOCC3)cc21 | . | 4 | -3% | 0 | 0.9
COc1cccc(N2C(=O)NC(=O)/C(=C\c3cn(C)c4ccccc34)C2=O)c1 | . | . | . | 26 | -0.8
COc1cc2c(cc1OC)C(c1cccc([N+](=O)[O-])c1)N(C(=O)CCC(=O)O)CC2 (stereo not given) | . | . | . | 7 | -1.6
COc1ccc(NC(=S)N2CCN(CCN3C(=O)c4cccc5cccc(c45)C3=O)CC2)cc1 | . | -4 | -5% | -6 | -3.2
O=C(NCc1ccccc1)C(=O)Nc1nc(C23CC4CC(CC(C4)C2)C3)cs1 | -9 | 7 | 7% | -3 | 2.0
COC(=O)C1SCC2C(=O)N(Cc3cccc(C)c3)CC(=O)N21 (stereo not given) | . | 13 | -2% | -4 | -2.2
O=C(/C=C/c1ccccc1)C1=C(O)C(=O)N(CCO)C1c1ccccc1[N+](=O)[O-] (stereo not given) | . | -3 | -12% | 0 | -0.1
COc1cc2c(C(=O)NCCCOC(C)C)cn(CC(C)C)c(=O)c2cc1OC | -29 | 1 | -5% | -10 | 7.3
CCCCCCC1CC(CC(=O)Nc2ccc([N+](=O)[O-])cc2)C(=O)O1 (stereo not given) | -35 | 8 | 7% | 18 | 0.7
CNc1c(NS(=O)(=O)c2ccc(CC(C)C)cc2)c(=O)oc2ccccc12 | . | . | . | -4 | -0.4
COCCOC(=O)CC1=NC(=O)CS1 | -22 | 1 | 1% | 1 | -2.2
O=C(CC1(O)C(=O)Nc2ccccc21)c1cccc(Br)c1 (stereo not given) | -24 | -11 | -4% | 3 | 2.5
O=C(Nc1ccccc1)Nc1cccc(-c2cn3cccnc3n2)c1 | . | -7 | -2% | -11 | -4.8
CCc1nonc1NC(=O)c1oc2ccc(C)cc2c1C | . | . | . | -4 | -1.4
Cc1ccc(-c2c(C#N)c(N)nc3c2CCCCC3)o1 | -28 | 4 | 4% | 42 | -3.6

Continued.
SMILES | YopH PTP inh | Arbovirus anti | Mtb H37Rv | Mtb betalactam | RecA splice inh | others
COC(=O)c1ccc(OCC2NCCc3cc(OC)c(OC)cc32)cc1 (stereo not given) | . | . | . | ? | -4.2
NC(=O)CCC(C(=O)O)N1C(=O)c2ccc(O)cc2C1=O (stereo not given) | . | . | -3% | 1 | -2.1
CCN(C(=O)c1cc2c(=O)n3cccc(C)c3nc2s1)C1CCCCC1 | . | . | . | -6 | -4.9
Cc1ccc(S(=O)(=O)N(C)c2ccccc2C(=O)N2CCCC2)cc1 | . | . | . | 3 | 0.5
CCOc1ccc(S(=O)(=O)n2nc(C)c(S(=O)(=O)N3CCOCC3)c2C)cc1 | . | . | . | -2 | 2.4
O=C(NCc1ccc(F)cc1)c1cc2n(n1)C(C(F)(F)F)CC(C1CC1)N2 (stereo not given) | -28 | 6 | 10% | -3 | -0.6 | Arbovirus anti repeat=9
CCCNC(=O)COc1ncnc2sccc12 | . | 16 | 2% | -13 | 6.5
COC(=O)CSc1nnc(Cc2ccccc2)n1-c1ccc(C)cc1 | -7 | 7 | -15% | -23 | 1.0
O=C(CSC1c2ccccc2-c2ccccc21)N/N=C/c1ccccc1 | 16 | 5 | 3% | 7 | 3.6
CN(C)c1ccc(C(CNC(=O)c2cccs2)N(C)C)cc1 (stereo not given) | . | . | . | -1 | -0.8
CC(C)CC(c1nnnn1Cc1ccco1)N1CCN(C2CCCC2)CC1 (stereo not given) | -38 | -7 | -3% | -4 | -2.9
O=C1CCCC(=O)N1c1ccc(N2CCOCC2)c([N+](=O)[O-])c1 | . | 2 | 1% | 12 | 3.3
COc1ccc(-c2ccc(C#N)c(SCC(=O)OCc3ccccc3)n2)cc1OC | -28 | -2 | ? | 99 | -2.2
C/C(=N\NC(=O)COc1ccccc1-c1ccccc1)c1ccc(O)cc1O | . | . | -11% | -4 | -2.0
CCC(C)(C)n1nnnc1C(c1cccs1)N1CCN(c2nc3ccccc3s2)CC1 (stereo not given) | -46 | 11 | 14% | 10 | 9.2
COc1cccc(CC(=O)Nc2nc(-c3cccnc3)cs2)c1 | -7 | 12 | 10% | -2 | -1.8
O=C(COc1ccccc1C(=O)N/N=C\c1ccc(O)c(O)c1)N/N=C/c1ccc(O)c(O)c1 | -53 | -8 | . | 18 | -4.7
CCC1=Nc2cc(C(=O)NCCN3CCCC3)ccc2Sc2ccccc21 | . | . | . | -2 | 38*
CCOc1ccc(CCNC(=O)CCN2C(=O)COc3ccccc32)cc1OCC | -29 | 1 | 9% | -2 | -8.8
CC(=O)Oc1ccc(N2C(=O)CCC2=O)cc1 | -13 | -1 | 6% | -15 | 1.1
O=C(c1ccco1)N1CCN(C(=O)N2c3ccccc3Sc3ccccc32)CC1 | -7 | -23 | 2% | 15 | 13
Cc1ccc(C)c(N2CCN(C(=O)c3ccccc3Br)CC2)c1 | -30 | -10 | 10% | -5 | 9.1
COc1cc(NC(=O)c2cc3nc(-c4ccccc4)cc(-c4ccccc4)n3n2)cc(OC)c1OC | -32 | -3 | -11% | -4 | -14
COc1cccc(CNC(=O)C2CC(=O)N(C3CCCCC3)C2)c1 (stereo not given) | . | . | . | 1 | -0.1
COc1ccc(C2=NOC(C(=O)N3CCCc4ccccc43)C2)cc1 (stereo not given) | -60 | 1 | 12% | -2 | 4.6

The results go on:
SMILES | YopH PTP inh | Arbovirus anti | Mtb H37Rv | Mtb betalactam | RecA splice inh | others
Cc1ccc(C(=O)NCC(=O)Nc2cccc(S(=O)(=O)NC3=NCCCCC3)c2)cc1C | . | 16 | -2% | 1 | 2.6
COc1ccc(CN2CC34C=CC(O3)C(C(=O)O)C4C2=O)cc1 (stereo not given) | -42 | 1 | 0% | 5 | -1.2 | Arbovirus anti repeat=5
CCN(CC(=O)Nc1cccc(C#N)c1)CC(=O)Nc1cccc(OC)c1 | . | 13 | 6% | 3 | -8.7
CCCOc1ccc(C(=O)CCC(=O)NNC(=O)Cn2nc(C)cc2C)cc1 | . | . | . | -2 | 1.3
COc1ccccc1OCCNc1cc(N2CCOCC2)ccc1[N+](=O)[O-] | -25 | -1 | -4% | 10 | -1.6
Cc1onc(-c2ccccc2)c1C(=O)N1CCN(c2ccccc2F)CC1 | . | . | . | -1 | 1.7
c1ccc(Nc2ccccn2)cc1 | 5 | 0 | -5% | -4 | -1.4
CCCCNC(=O)Nc1cc(C(F)(F)F)c[nH]c1=O | -54 | 7 | -23% | ? | 4.0
COc1cccc(C(CC(=O)NCc2ccco2)NS(=O)(=O)c2ccc(C)cc2)c1OC (stereo not given) | -18 | 10 | 1% | -7 | 2.5
CCn1c2ccccc2c2cc(NC(=O)COc3ccccc3)ccc21 | -31 | -6 | 17% | 6 | 3.4
N=c1oc2ccccc2cc1-c1nc(-c2ccccc2)cs1 | -1 | 11 | 8% | -1 | -23
CCC(=O)N1N=C2C3CCN(CC3)C2C1c1ccc(C)cc1 (stereo not given) | -4 | -3 | 2% | -3 | 0.5
CC(NC(=O)COc1ncnc2cc([N+](=O)[O-])ccc12)c1ccccc1 (stereo not given) | -4 | 0 | 1% | 3 | 2.6
CCOC(=O)Nc1ccc2c(c1)N(C(=O)CN1CCN3CCCC3C1)c1ccccc1CC2 (stereo not given) | -35 | 7 | -6% | -10 | 2.1
COc1ccc([N+](=O)[O-])cc1-n1cnnn1 | . | -5 | 1% | -3 | -0.8
CCC(=O)N1N=C(c2ccccc2)CC1c1ccccc1 (stereo not given) | . | . | . | 2 | 3.2
CC1(c2ccc(OC(F)F)cc2)NC(=O)N(CC(=O)Nc2ccc(F)cc2)C1=O (stereo not given) | . | . | . | -3 | -1.9
CC(=O)NC(c1ccccc1)c1cccnc1 (stereo not given) | -27 | 14 | -14% | -16 | -1.7
Cc1ccc(NC(=O)CSc2nc3ccccc3c(=O)n2CC2CCCO2)cc1 (stereo not given) | . | . | . | 7 | 2.7
O=C(Nc1ccc(Cl)c(Cl)c1)Nc1ccon1 | . | . | . | -1 | 3.4
CC1=CSC2=NC(C(F)(F)F)(C(F)(F)F)NC(=O)N12 | . | . | -10% | -9 | -1.4
O=C(C(Cc1ccccc1)n1cccc1)N1CCN(C2CCCCC2)CC1 (stereo not given) | 4 | -1 | 5% | -5 | 1.2 | Arbovirus anti repeat=-19
COc1ccccc1CNC(=O)C1CCN(C(=O)N(C)C)CC1 | -5 | 7 | 2% | -9 | 1.1
O=C(Nc1ccccc1)c1nnsc1S(=O)c1ccc(Cl)cc1 (stereo not given) | -35 | -32 | 47% | 100 | 35*
CCOC(=O)N1CCC(NC(=O)Cc2ccccc2)CC1 | . | . | . | -16 | -2.4

Other structures follow.
SMILES | YopH PTP inh | Arbovirus anti | Mtb H37Rv | Mtb betalactam | RecA splice inh | others
COc1ccccc1-c1cc(C(F)(F)F)nc(NCc2ccco2)n1 | -39 | -32 | 6% | 15 | 1.2
Cn1nc(C(F)(F)F)c2cc(NC(=O)OCc3ccc(F)cc3)sc21 | -20 | -25 | 0% | 4 | 9.5
C(/CCc1ccccc1)=N\Nc1nc2ccccc2[nH]1 | . | -24 | 3% | 1 | .
COc1ccc(C(=O)Nc2cccc(/C=C/c3nc4ccccc4c(=O)[nH]3)c2)cc1 | . | . | -2% | 0 | 5.1
COc1cc(NC2c3ccccc3C(=O)N2Cc2ccc3c(c2)OCO3)cc(OC)c1OC (stereo not given) | -55 | 2 | -3% | -1 | 0.6
COC(=O)c1[nH]c2ccccc2c1NC(=O)CN1CCC(C(N)=O)(N2CCCCC2)CC1 | -11 | 4 | 4% | -6 | 6.2
Cc1ccn2c(NC3CCCC3)c(-c3cccs3)nc2c1 | . | 17 | -7% | -5 | -0.6
CCOc1ccc(CNC(=O)CCC(=O)N2Cc3cccc(OC)c3Oc3ncccc32)cc1 | . | . | . | 7 | 0.6

Molecules above that contain a nitro group on carbon (10):
SMILES | YopH PTP inh | Arbovirus anti | Mtb H37Rv | Mtb betalactam | RecA splice inh | others
O=C1CC(c2cc([N+](=O)[O-])ccc2Cl)c2c(ccc3ccccc23)N1 (stereo not given) | -30 | -14 | 34% | 5 | -0.1
O=[N+]([O-])c1c(NCCCO)cc(N2CCN(Cc3ccc4c(c3)OCO4)CC2)c2nonc12 | -23 | 9 | 7% | 5 | 1.0
CCOC(=O)CNc1ccc(C(=O)OCC)cc1[N+](=O)[O-] | -41 | 8 | 3.2µM* | 98 | -1.5
COc1cc2c(cc1OC)C(c1cccc([N+](=O)[O-])c1)N(C(=O)CCC(=O)O)CC2 (stereo not given) | . | . | . | 7 | -1.6
O=C(/C=C/c1ccccc1)C1=C(O)C(=O)N(CCO)C1c1ccccc1[N+](=O)[O-] (stereo not given) | . | -3 | -12% | 0 | -0.1
CCCCCCC1CC(CC(=O)Nc2ccc([N+](=O)[O-])cc2)C(=O)O1 (stereo not given) | -35 | 8 | 7% | 18 | 0.7
O=C1CCCC(=O)N1c1ccc(N2CCOCC2)c([N+](=O)[O-])c1 | . | 2 | 1% | 12 | 3.3
COc1ccccc1OCCNc1cc(N2CCOCC2)ccc1[N+](=O)[O-] | -25 | -1 | -4% | 10 | -1.6
CC(NC(=O)COc1ncnc2cc([N+](=O)[O-])ccc12)c1ccccc1 (stereo not given) | -4 | 0 | 1% | 3 | 2.6
COc1ccc([N+](=O)[O-])cc1-n1cnnn1 | . | -5 | 1% | -3 | -0.8
